VDR inh – vitamin D3 receptor (human) inhibition; Potency, µM, without a hit: max response, negative = inhibition, hits mostly inhibitors; VDR-SRC2-3 peptide fluorescence polarization, 2 h; 0.93% of 400,000 active; P11473; active = well fitted inhibition curve with a large enough effect; inconclusive = small, poorly fitted or top-dose-only effect, or another doubt; inactive = no such curve, though single readings can be large or run the other way; note: series mostly up to about 120 µM
Target sequence (P11473 whole entry, looked up): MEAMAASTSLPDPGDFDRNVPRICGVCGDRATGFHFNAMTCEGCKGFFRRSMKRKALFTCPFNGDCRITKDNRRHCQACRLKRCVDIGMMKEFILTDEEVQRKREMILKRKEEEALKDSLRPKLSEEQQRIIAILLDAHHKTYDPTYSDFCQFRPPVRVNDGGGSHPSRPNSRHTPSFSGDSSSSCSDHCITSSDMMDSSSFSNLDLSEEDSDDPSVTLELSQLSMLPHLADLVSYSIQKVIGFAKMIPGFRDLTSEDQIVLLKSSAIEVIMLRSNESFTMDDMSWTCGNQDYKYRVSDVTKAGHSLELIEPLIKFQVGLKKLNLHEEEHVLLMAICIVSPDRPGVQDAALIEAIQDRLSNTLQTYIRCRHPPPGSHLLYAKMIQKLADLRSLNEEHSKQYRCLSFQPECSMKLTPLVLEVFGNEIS
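Measured by FP: displacement of SRC2-3 coactivator peptide from VDR by library compounds, following a two-hour ambient incubation.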
* = called active by the depositor; ? = inconclusive; [ ] = another dose, or the depositor's remark. % is set by controls: 0 for no effect and ±100 for the full control effect; potency is the fitted concentration of half-maximal effect. These rows are one share of the data; the hit share may differ from the screen's.

SMILES	VDR inh
O=C(NC(Cc1ccccc1)C(=O)O)/C(=C\c1ccc(Cl)cc1)NC(=O)c1ccco1 (stereo not drawn)	-8.4%
COC(=O)C1=C(C(=O)OC)[C@@H]2N(C)c3ccc(OC)cc3[C@@]23C[C@@H](C(=O)OC)N(C(=O)c2cc(C)oc2C)C3=N1	-7.2%
Cc1ccc(S(=O)(=O)CCC(=O)OCC(=O)NC2CCS(=O)(=O)C2)cc1 (stereo not drawn)	2.5%
Cc1c(Cl)cccc1NC(=O)c1cc(-c2ccccc2O)n[nH]1	2.4%
CCOc1ccc(OCC)c(NC(=O)C(NS(=O)(=O)c2ccc3c(c2)oc(=O)n3C)C(C)C)c1 (stereo not drawn)	17.6%
CC1(C)NC(=O)N(CC(=O)N2CCN(S(=O)(=O)c3ccccc3F)CC2)C1=O	-2.2%
COc1cc(CC(CC(=O)c2ccc3c(c2)OCO3)C(=O)O)cc(OC)c1OC (stereo not drawn)	-9.5%
CC1(C(=O)N(CC(=O)NC2CCCC2)Cc2ccc(Cl)cc2)CC(=O)N=C2C=CC=CN21 (stereo not drawn)	-6.3%
CCOC(=O)/C=C1\SCC(=O)N1CC(=O)Nc1ccc(C(C)C)cc1	5.9%
COc1ccc(S(=O)(=O)Nc2ccc3c(c2)C(=O)N([C@H](C)CO)C[C@H](C)[C@@H](CN(C)S(=O)(=O)c2ccc(F)cc2)O3)cc1	-2.3%
O=C(O)CCc1ccc(-c2cccs2)n1Cc1ccco1	-5.3%
CC(C#N)(NC(=O)CN1CCN(S(=O)(=O)c2ccc(Br)cc2Cl)CC1)C1CC1 (stereo not drawn)	-18.4%
CCOc1ccc(C2CC(c3ccc(F)cc3)n3ncnc3N2)cc1 (stereo not drawn)	-7.0%
CCCCc1ccc(Nc2ncccc2C#N)cc1	5.3%
NC(=NCCc1ccccc1)NS(=O)(=O)c1ccccc1F	1.0%
Cc1ccc(NC(=O)c2nc(S(C)(=O)=O)ncc2N(Cc2ccco2)Cc2ccco2)cc1	8.6%
CS(=O)(=O)N(Cc1ccccc1)c1ccccc1C(=O)N1CCN(c2ccccc2)CC1	-2.1%
COc1ccc(OC)c(NC(=O)c2cccc(NC(=O)c3ccccc3C(=O)O)c2)c1	10.1%
CCOC(=O)Cc1cc(C(=O)Nc2ccc(Br)cc2)sc1-c1ccc(C)cc1	-7.6%
CN(CC(=O)NCc1ccccc1)CC(=O)Nc1ccc(Cl)c(C(F)(F)F)c1	12.7%
CCS(=O)(=O)C1=NSC2=NC(=O)/C(=C\c3ccc(OC(=O)c4ccco4)c(OC)c3)C(=N)N21	-25.5%
NNC(=O)CN1C(c2ccc(Br)cc2)=Nc2ccc(Br)cc2C1c1ccccc1 (stereo not drawn)	?
Nc1nonc1C(=O)NCCNCc1ccccc1OCc1ccccc1F	16.4%
Cc1ccsc1/C=N/n1c(-c2ccccc2)n[nH]c1=S	-13.2%
CC1=C(C(=O)Nc2ccccc2C)C(c2sccc2C)n2ncnc2N1 (stereo not drawn)	-10.2%
CSCCC(NC(=O)c1ccco1)C(=O)N1CCN(C(c2ccccc2)c2ccccc2)CC1 (stereo not drawn)	-6.7%
CCCCn1c(-c2ccc(F)c(F)c2)nc2cc3[nH]c(=O)c(C(C)C)nc3cc21	-2.7%
CCc1ccc2nc(N(CCN(C)C)C(=O)/C=C/c3cccs3)sc2c1	1.0%
Cc1noc(C)c1COC(=O)[C@@H](NC(=O)c1ccccc1)C(C)C	15.6%
O=C(c1ccco1)N(Cc1cccnc1)c1nc2c(F)cccc2s1	12.4%
COc1ccc(Nc2cc(NCCCO)c([N+](=O)[O-])c3nonc23)cc1	10.4%
CCCCCOC(=O)c1[nH]c2c(c1C)C(=O)CC(c1ccco1)C2 (stereo not drawn)	79.4µM*
O=C1CN(C(=O)c2cccs2)c2ccccc2N1	2.1%
CC1=CCC2C(=O)N(c3nc4ccccc4n3C)C(=O)C2C1 (stereo not drawn)	2.8%
N#Cc1cccc(S(=O)(=O)NCCOc2ccccc2F)c1	-16.3%
O=C(CSc1nnc(Cc2ccccc2)n1-c1cccc(Cl)c1)N1CCOCC1	-1.5%
Cc1cc(C(=O)NC2CC(C)(C)Cc3c2cnn3-c2cccc(F)c2)nn1C (stereo not drawn)	-9.3%
Cc1nn2c3ccccc3nc2c2ccccc12	-2.8%
Cc1ccc(C)c(SCC(=O)Nc2cccc(S(=O)(=O)N3CCOCC3)c2)c1	-10.4%
CC1CCCN(C(=O)COC(=O)c2ccc3[nH]c4c(c3c2)CCCC4)C1 (stereo not drawn)	-6.2%
CC(c1ccccc1)N1CCC(CNC(=S)Nc2cccc(Cl)c2)C1 (stereo not drawn)	-1.3%
O=C1c2ccccc2C(=O)N1CCCc1nc(-c2cccnc2)no1	11.0%
CC(=O)NCCc1nc2ccccc2n1CCc1ccccc1	30.7%[activator]
Cc1c(C#N)c(N=CN(C)C)c(C(=O)c2ccc(Br)cc2)n1-c1ccc(Cl)cc1	4.9%
O=C(CCCc1ccccc1)Nc1ccccc1[N+](=O)[O-]	20µM*
O=C(C(O)c1ccccc1)N1N=C(c2ccccc2)CC1(O)C(F)(F)F (stereo not drawn)	-2.8%
CC(=O)N1N=C(c2ccc(NS(C)(=O)=O)cc2)CC1c1ccc2nccnc2c1 (stereo not drawn)	-5.2%
COc1cc2c(cc1OC)CN(C(=O)CCc1c[nH]c3ccccc13)[C@H](C(=O)O)C2	-1.7%
CC1(C)N=C(N)N=C(N)N1c1ccccc1	1.2%
C[C@@]12CC(=O)NC1N(C(=O)c1cccc(C(F)(F)F)c1)C(c1ccccc1OC(=O)c1cccc(C(F)(F)F)c1)C2 (stereo partly drawn)	-16.2%
COc1cccc(C(=O)C2CCCN(Cc3cn[nH]c3C3CCCCC3)C2)c1 (stereo not drawn)	-9.5%
Cc1cc([N+](=O)[O-])ccc1NC(=O)c1sc2ncn(CC(=O)N3CCOCC3)c(=O)c2c1C	3.7%
Cc1ccc(NC(=S)N/N=C/c2ccc(Cl)c([N+](=O)[O-])c2)cc1	-0.6%
CCOc1c(Cl)cc(CNc2ccc(N3CCCC3)cc2)cc1OC	14.1µM*
CCOC(=O)c1c(NC(=O)CSc2c[nH]c3ccccc23)sc2c1CCC2	-0.7%
COc1ccc(CCNC(=O)c2ccc3nc(CCc4ccccc4)oc3c2)cc1OC	5.9%
CCCCCNC(=O)c1ccc(NS(=O)(=O)c2ccc3[nH]c(=O)[nH]c3c2)cc1	-23.8%
COc1cccc(C(C(=O)NC2CCCC2)N(C(=O)c2ccco2)c2cccc(C(C)=O)c2)c1OC (stereo not drawn)	-3.4%
COc1cc(N)c(Cl)cc1C(=O)OCC(=O)N1CCc2ccccc21	2.6%
CC(C)Cc1ccc(C(=O)NCCOc2ccccc2)o1	0.5%

The list continues:
SMILES	VDR inh
CCOC(=O)C1(CCOC)CCN(Cc2cc3ccccc3s2)CC1	44.7µM*
COc1ccc(N2CCN(C(=O)CN3C(=O)NC4(CCCCC4C)C3=O)CC2)cc1 (stereo not drawn)	3.6%
O=C(CCn1ccnc1)Nc1nc2ccccc2[nH]1	2.9%
O=C(N[C@H]1C/C=C\C[C@@H](CC(=O)N(CCO)Cc2ccccc2)C(=O)N2CCC[C@H]2COC1=O)OCC1c2ccccc2-c2ccccc21	4.4%
COc1cccc(-n2ccn(CC(=O)NCCc3ccccc3)c(=O)c2=O)c1	16.1%
Cc1ccc(/C=C2\SC(=S)N(CCCC(=O)Nc3cccc(C(=O)O)c3)C2=O)cc1	-24.5%
CCOCCCNC(=O)C1CCC(CNS(=O)(=O)c2ccc(OC)cc2)CC1 (stereo not drawn)	-9.7%
Cc1nn(CC(O)Cn2c3c(c4ccccc42)CCN(C)C3=O)c(C)c1Br (stereo not drawn)	-7.4%
CCc1ccccc1NC(=O)C/C(C)=N/NC(=O)COc1ccccc1C	-4.7%
COCCn1c(SCC(=O)NCc2ccc(OC)c(OC)c2)nc2ccccc21	4.1%
O=C(Nc1ccccc1NC(=O)c1ccc(F)cc1)c1ccc(F)cc1	-11.6%
Cc1cccc(N2CCN(c3nc4nonc4nc3N3CCSCC3)CC2)n1	-25.7%
COc1cc(/C=N/NC(=O)Cn2ccc(C(F)(F)F)n2)cc(OC)c1OC	-13.9%
O=C(COC(=O)/C=C/c1ccc(Cl)c(Cl)c1)NC1CCS(=O)(=O)C1 (stereo not drawn)	-27.1%
CCC1CCCCN1Cc1c(O)ccc2c(=O)c(-c3ccccc3)coc12 (stereo not drawn)	-16.1%
Cc1ccccc1NC(=O)COC(=O)CCc1ccccc1	-10.8%
CCCCn1c(SCC(=O)Nc2nnc(C)s2)nnc1-c1ccoc1C	-6.4%
CC(C)(C)c1ccccc1NC(=O)c1cc(-c2ccncc2)nc2ccccc12	7.8%
CCOc1cc(C(=O)Nc2c(C)ccc3nsnc23)cc(OCC)c1OCC	0.3%
Fc1ccccc1N1CCN(Cc2nc(-c3ccc(Cl)cc3Cl)no2)CC1	-8.3%
Cn1cccc1/C=N/NC(=O)CNc1cccc2ccccc12	14.9%
Oc1ccc(Cl)cc1CNCc1cccc2ccccc12	-29.1%
OCCNc1cc(-n2nc(-c3ccccc3)cc2-c2ccccc2)ncn1	-3.8%
Cc1ccc(-c2nnc(Nc3ccc(CC(N)=O)cc3)c3ccccc23)cc1S(N)(=O)=O	18.4%
CCn1ncc(C2=NOC(C(=O)Nc3c(C)nn(Cc4ccc(F)cc4)c3C)C2)c1C (stereo not drawn)	-17.2%
Cc1cccc(N2CCN(c3nnc(C(F)(F)F)s3)CC2)c1	10.3%
CCNS(=O)(=O)c1ccc(S(=O)(=O)N(Cc2ccccn2)C2CCCCC2)cc1	8.8%
Nc1cc(=O)[nH]c(=O)n1Cc1ccccc1	-12.2%
C=CCn1c(C)cc(C(=O)COC(=O)c2n[nH]c(=O)c3ccccc23)c1C	-7.0%
CCOc1ccc(C(C)NC(=O)Nc2ccccc2C(=O)OC)cc1 (stereo not drawn)	4.2%
CCN(Cc1cc2ccccc2[nH]c1=O)C(=O)C1CCCCC1	-8.8%
COCCNC(=O)c1ccccc1NC(=O)c1ccccc1N(C)S(=O)(=O)c1ccc(C)cc1	-9.2%
CCOC(=O)c1ccc(NC(=O)CSc2c3c(nc4cc(Cl)ccc24)CCCC3)cc1	-19.6%
COP(=O)(OC)C(Nc1ccc(Cl)cc1)c1ccccc1 (stereo not drawn)	-20.1%
Cc1ccc(NC(=O)Cn2c(=O)n(Cc3ccc4c(c3)OCO4)c(=O)c3ccc(C(=O)NC4CCCCC4)cc32)cc1	19.7%
COc1ccc(/C=C(\NC(=O)c2ccc(OC)cc2)C(=O)Nc2ccccc2C(=O)O)cc1	-9.3%
CC(C)OCCCNS(=O)(=O)c1ccc2c(c1)oc(=O)n2C	4.2%
CCOc1ccc(C2=NNC(c3cccs3)=Nc3ccc(OC)cc32)cc1	3.8%
COc1ccc(N/C(C)=C/C(=O)c2ccccc2)cc1	-7.2%
C=CCC1(N(C(C)=O)c2ccccc2)CCCCC1	-8.5%
O=C(C1CCCN(S(=O)(=O)c2cccs2)C1)N1CCc2ccccc2C1 (stereo not drawn)	-5.5%
CC1=C(C(=O)N2CCOCC2)C(c2ccc(-c3ccccc3)cc2)NC(=S)N1 (stereo not drawn)	-4.6%
CC(=O)c1ccc(C(=O)N(Cc2cccnc2)c2nc3c(C)c(C)ccc3s2)cc1	4.8%
CC(=O)c1ccc(NC(=O)C(C)Sc2nnc3ccccn23)cc1 (stereo not drawn)	-13.2%
CCCC1=Nc2cc(C(=O)NCc3ccc(OC)cc3)ccc2Sc2ccc(C)cc21	-9.1%
CC(C)=N/N=C1/NC(=O)C(c2ccc(Cl)cc2)S1 (stereo not drawn)	0.9%
Cc1onc(-c2ccccc2Cl)c1C(=O)N(C)Cc1ccccc1	-4.6%
C/C(=N\NC(=O)c1nnn(-c2nonc2N)c1CN1CCCCC1)c1ccccc1O	-11.9%
Cc1ccc(C(C)C)c(OCC(=O)Nn2c(=O)[nH]c3ccccc3c2=O)c1	-5.0%
CS(=O)(=O)N(CC(=O)N1CCN(Cc2ccccc2)CC1)c1ccccc1Br	-6.4%
Cc1ccc(C2c3cccn3CCN2S(=O)(=O)c2ccc([N+](=O)[O-])cc2)cc1 (stereo not drawn)	-2.7%
NS(=O)(=O)c1ccc(CCNC(=O)c2ccccc2Cc2ccccc2)cc1	4.7%
CCOc1ccc(CC(=O)NCc2ccc3c(c2)CCN3C(=O)c2ccc(F)cc2)cc1OCC	18.5%

Exported with values ahead of the structure: entries from further up
VDR inh	SMILES
3.8%	CCOc1ccc(C2=NNC(c3cccs3)=Nc3ccc(OC)cc32)cc1
-7.2%	COc1ccc(N/C(C)=C/C(=O)c2ccccc2)cc1
-8.5%	C=CCC1(N(C(C)=O)c2ccccc2)CCCCC1
-5.5%	O=C(C1CCCN(S(=O)(=O)c2cccs2)C1)N1CCc2ccccc2C1 (stereo not drawn)
-4.6%	CC1=C(C(=O)N2CCOCC2)C(c2ccc(-c3ccccc3)cc2)NC(=S)N1 (stereo not drawn)
4.8%	CC(=O)c1ccc(C(=O)N(Cc2cccnc2)c2nc3c(C)c(C)ccc3s2)cc1
-13.2%	CC(=O)c1ccc(NC(=O)C(C)Sc2nnc3ccccn23)cc1 (stereo not drawn)
-9.1%	CCCC1=Nc2cc(C(=O)NCc3ccc(OC)cc3)ccc2Sc2ccc(C)cc21
0.9%	CC(C)=N/N=C1/NC(=O)C(c2ccc(Cl)cc2)S1 (stereo not drawn)
-4.6%	Cc1onc(-c2ccccc2Cl)c1C(=O)N(C)Cc1ccccc1
-11.9%	C/C(=N\NC(=O)c1nnn(-c2nonc2N)c1CN1CCCCC1)c1ccccc1O
-5.0%	Cc1ccc(C(C)C)c(OCC(=O)Nn2c(=O)[nH]c3ccccc3c2=O)c1
-6.4%	CS(=O)(=O)N(CC(=O)N1CCN(Cc2ccccc2)CC1)c1ccccc1Br
-2.7%	Cc1ccc(C2c3cccn3CCN2S(=O)(=O)c2ccc([N+](=O)[O-])cc2)cc1 (stereo not drawn)
4.7%	NS(=O)(=O)c1ccc(CCNC(=O)c2ccccc2Cc2ccccc2)cc1
18.5%	CCOc1ccc(CC(=O)NCc2ccc3c(c2)CCN3C(=O)c2ccc(F)cc2)cc1OCC
